Screens from PubChem.
Ecoli rRNA inh – selective bacterial rRNA inhibition in E. coli. GFP signal change (wild-type ribosome), % (test concentration not listed). E. coli WT GFP vs humanized-ribosome RFP mutants, fluorescence, 24 h; active compounds read low; DMSO median 0, no signal -100. AID 720706. actives 1.6% (n = 350,000);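 active = significant combined selectivity score with lowered wild-type GFP, culture density cut under 30%, mutant RFP and density less affected; inactive = any of these conditions unmet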; also: one replicate is shown; some compounds called inactive have numbers as strong as hits
HNF4A DNA FP – change in binding of human HNF4 alpha to DNA; activity change, % at 10 µM; P41235; HNF4a-FITC DNA binding, fluorescence polarization, 1 h; actives 0.3% (n = 360,000); in the data active = activity change above about 30%, passing the limit was not always enough;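 also: controls were the assay level and a saturating level of protein; the project sought stronger binding though the title names inhibitors; some compounds called inactive have numbers as strong as hits; positive values seem to mean higher polarization but the record does not say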
Target sequence (P41235 whole entry, looked up): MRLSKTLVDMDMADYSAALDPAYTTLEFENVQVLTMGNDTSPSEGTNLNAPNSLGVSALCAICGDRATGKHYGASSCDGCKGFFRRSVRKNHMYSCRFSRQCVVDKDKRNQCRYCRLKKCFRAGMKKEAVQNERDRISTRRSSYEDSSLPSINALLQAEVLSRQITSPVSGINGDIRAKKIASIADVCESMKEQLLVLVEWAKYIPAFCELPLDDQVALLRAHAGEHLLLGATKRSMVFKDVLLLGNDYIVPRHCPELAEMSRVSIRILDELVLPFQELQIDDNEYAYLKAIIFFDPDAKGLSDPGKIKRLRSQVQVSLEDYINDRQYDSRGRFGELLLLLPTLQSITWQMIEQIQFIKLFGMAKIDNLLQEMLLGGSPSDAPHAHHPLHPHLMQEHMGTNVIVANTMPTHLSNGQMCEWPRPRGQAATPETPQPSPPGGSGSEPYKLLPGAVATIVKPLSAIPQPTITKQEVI
Vif TR-FRET – HIV-1 Vif–A3G interaction blockers – biochemical, TR-FRET, GST-Vif 1-94, biotin-A3G peptide, dose response retest, primary screen (AID 1117319); TR-FRET GST-Vif / biotin-A3G peptide binding; higher % means a stronger effect; test concentration not given here; strong numbers were not always called active; inhibition, %, or IC50 in µM where a hit was titrated; actives 0.57% (n = 260,000);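 active = above the screen mean plus three standard deviations and confirmed in dose response; inconclusive = results disagree or hit not tested in dose response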;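 also: Vif residues 1-94 fused to GST binding biotinylated APOBEC3G peptide 110-148; 0% = full assay without inhibitor and 100% = GST in place of GST-Vif; retest series ran down from 100 µM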
ALR H2O2 inh – blocks human ALR sulfhydryl oxidase activity; AID 485317; actives 3.8% (n = 290,000); inhibition, % (concentration not given with the values); purified ALR, DTT oxidation, H2O2 HRP-luminol luminescence;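 active = mean and each replicate at 75% or more; inconclusive = only one of the two met; inactive = neither met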;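 also: stock transfer was 7.5 nL into about 7.5 µL; 0% = neutral wells and 100% = wells with inactivated enzyme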
Ecoli growth – inhibitors of Escherichia coli growth; OD600, 23 h; active compounds read low; OD600 absorbance (no concentration beside the values); actives 0.21% (n = 330,000);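 active = OD600 absorbance below the run mean of sample wells minus 3.6 SD, in any replicate, cut at about 0.56 in these data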;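 also: stock transfer was 300 nL into about 60 µL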
FGF22 binding – FGF22 (human) thermal shift binding; recombinant FGF22 thermal shift, SYPRO orange fluorescence; percent of sucrose octasulfate shift, DMSO zero; actives 1.5% (n = 340,000); calls only at 9.99 µM; AID 651658;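 active = melting point raised past a set limit in the mean and every replicate; inconclusive = no clear call; three in four hits are not shown here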
AF4-AF9 inh – MLL-AF4/AF9 protein interaction inhibition | P42568 | AlphaScreen, biotin-AF4 peptide binding to FLAG-AF9 | inhibition, % at 10 µM | actives 0.47% (n = 350,000) | AID 651704;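 active = every replicate reaching a set inhibition limit, whatever the replicate mean, cut at about 25% in these data; inconclusive = mean inhibition reaches that limit but some replicates miss it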;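 also: 0% = plate neutral control median and 100% = total signal loss; the record names both 10 and 1 µM as test concentration; the first replicate is given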
Target sequence (P42568 whole entry, looked up): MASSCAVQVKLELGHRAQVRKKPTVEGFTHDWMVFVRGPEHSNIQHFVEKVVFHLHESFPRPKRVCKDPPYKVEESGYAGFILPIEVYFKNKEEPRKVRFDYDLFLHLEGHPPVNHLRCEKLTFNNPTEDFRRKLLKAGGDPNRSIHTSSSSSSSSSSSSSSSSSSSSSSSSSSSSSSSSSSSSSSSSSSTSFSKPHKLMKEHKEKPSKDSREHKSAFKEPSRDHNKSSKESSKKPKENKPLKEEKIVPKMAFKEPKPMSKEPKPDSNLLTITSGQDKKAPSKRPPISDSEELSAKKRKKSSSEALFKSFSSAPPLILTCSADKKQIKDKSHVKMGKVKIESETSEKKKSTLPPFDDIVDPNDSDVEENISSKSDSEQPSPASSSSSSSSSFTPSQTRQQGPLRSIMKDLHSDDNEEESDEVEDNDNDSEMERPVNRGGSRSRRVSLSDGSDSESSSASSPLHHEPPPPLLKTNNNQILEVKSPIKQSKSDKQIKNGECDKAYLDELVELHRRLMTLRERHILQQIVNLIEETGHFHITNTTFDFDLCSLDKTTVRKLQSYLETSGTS
Ecoli rRNA inh OD600 – second read-out of Ecoli rRNA inh, no call of its own (marks repeat the call); OD600 change, %; measured here: OD600 growth;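 optical density of the mix in the first replicate; 0 = DMSO median and -100 = no signal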
Ecoli rRNA inh RFP – further read-out of Ecoli rRNA inh, marked with its call; RFP signal change, %; measured here: RFP humanized mutant strains;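 first replicate; 0 = DMSO median and -100 = no signal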
An asterisk follows results filed as active; i = inactive; u = inconclusive; x = not tested or not shown.

The line under a structure holds: Ecoli rRNA inh	Ecoli rRNA inh OD600	Ecoli rRNA inh RFP	HNF4A DNA FP	Vif TR-FRET	ALR H2O2 inh	Ecoli growth	FGF22 binding	AF4-AF9 inh
O=C(O)CSc1c2c(nc3cc(C(=O)Nc4cccc(C(F)(F)F)c4)ccc13)CCCC2
    -14	-16	16	1.1	-7%	22	0.68	i	-10
CCN(CC)C(=O)c1cc2sc3ccccc3c2s1
    x	x	x	-0.4	-18%	-2	0.75	x	x
O=C(/C=C/c1ccccc1[N+](=O)[O-])N1CCN(c2ccc(F)cc2)CC1
    -30*	-18*	-4.1*	-3.9	6%	17	0.67	i	3.5
CC1(C(=O)NCC2CC2)C=CC2(CCCCC2)N1C(=O)c1ccccc1 (centres undefined)
    6	0	4.6	0.6	x	-17	0.64	x	x
COc1ccc(N=Cc2cc(Cl)ccc2O)cc1Cl
    -3	-14	-3.5	1.1	-11%	-7	0.62	i	1.5
COc1ccc(NC2SC(=O)N(C)C2=O)cc1 (centres undefined)
    9	-9	-5.2	-0.9	13%	71	0.66	i	-2.3
C[C@@H]1CN([C@@H](C)CO)C(=O)c2cc(NS(=O)(=O)c3ccc(Cl)cc3)ccc2O[C@@H]1CN(C)C(=O)Nc1ccccc1
    -1	-4	-0.4	x	x	x	x	i	-8.7
CCCN(CC1CC1)C(=O)COC(=O)c1[nH]c(C)c(C(=O)OCC)c1C
    -9	-6	-1.8	2.7	u	-16	0.67	i	2.1
COc1ccc(/C=N/OCC(=O)NCC(C)C)c(OC)c1
    7	9	-4.8	1.9	-4%	-6	x	i	-0.3
CCOC(=O)Cn1c(=N)n(Cc2ccccc2)c2ccccc21
    x	x	x	1.2	-5%	0	0.7	x	x
CCCNC(=O)N1C[C@@H]2[C@H](c3ccccc31)[C@H](CO)N2CC1CCCCC1
    3	-5	-0.9	x	x	x	x	i	-0.1
Cc1cccc(N=C2NN=C(c3c(C)[nH]c4ccccc34)CS2)c1
    5	6	-4.9	0.2	-8%	x	0.66	i	3.5
CC(C)(C)NCc1cc(Cl)ccc1OCc1ccccc1F
    1	-8	-2.1	2.2	26%	x	0.67	i	1.7
CCOC(=O)c1ccc(S(=O)(=O)N2CCN(C3CCCC3)CC2)cc1
    13	14	2.1	-1.2	-8%	0	0.7	i	0.2
O=C(NCc1cccs1)C1CCC(CNS(=O)(=O)c2ccc(Br)s2)CC1 (centres undefined)
    x	x	x	0.9	-2%	2	0.8	x	x
Cc1ccc2nc(SCC(=O)Nc3cccc(S(N)(=O)=O)c3)[nH]c2c1
    -9	-2	-2.9	1.8	-7%	x	0.64	i	-39
CCc1ccc(NC(=O)Nc2c(C)n(C)n(-c3ccccc3)c2=O)cc1
    26	10	2.7	5.6	-2%	8	0.71	i	0.5
COc1ccc(CNC(=O)c2ccc(Cl)c(NC3=NC4CS(=O)(=O)CC4S3)c2)cc1 (centres undefined)
    14	5	-0.7	6.6	x	0	0.66	i	-7.3
COC(=O)CCN(C1CCCCC1)S(=O)(=O)c1ccc(S(=O)(=O)N2CCCCC2)cc1
    x	x	x	0.5	-1%	4	0.68	x	x
Cc1ccc(C(=O)Nc2ccc(Cl)cn2)cc1
    5	10	-1.8	1.1	-1%	-6	0.66	x	-18

The last two entries of the section above come first, to join the parts:
The line under a structure holds: Ecoli rRNA inh	Ecoli rRNA inh OD600	Ecoli rRNA inh RFP	HNF4A DNA FP	Vif TR-FRET	ALR H2O2 inh	Ecoli growth	FGF22 binding	AF4-AF9 inh
COC(=O)CCN(C1CCCCC1)S(=O)(=O)c1ccc(S(=O)(=O)N2CCCCC2)cc1
    x	x	x	0.5	-1%	4	0.68	x	x
Cc1ccc(C(=O)Nc2ccc(Cl)cn2)cc1
    5	10	-1.8	1.1	-1%	-6	0.66	x	-18
Cc1ccccc1C(=O)N1CCC(C(=O)Nc2sccc2C(N)=O)CC1
    x	x	x	0.5	2%	12	0.67	i	1.0
Cc1cc(N2CCCC2)nc(-c2ccccc2O)n1
    x	x	x	-0.3	u	-3	0.75	x	x
COc1ccc(S(=O)(=O)N[C@@H]2C=C[C@@H](CC(=O)O)O[C@H]2CO)cc1
    2	4	0.1	x	x	x	x	i	-0.5
CC(=O)Oc1cccc(C(=O)Nc2ccc3c(c2)C(=O)N(CC2CCCO2)C3=O)c1 (centres undefined)
    9	6	4.1	2.4	x	3	0.67	i	-1.9
CC(C)NC(=O)Nc1cccc2c1O[C@@H](CN(C)C(=O)Nc1ccc3c(c1)OCO3)[C@H](C)CN([C@H](C)CO)C2=O
    2	0	-4.9	x	x	x	x	i	-2.7
Oc1ccccc1N1CCN(c2ncnc3scc(-c4ccc(F)cc4)c23)CC1
    -12	-37	-2.6	1.6	x	10	0.71	i	2.9
CC(C)[C@H](NC(=O)N1CCn2c1nc1ccccc12)C(=O)NC1CC1
    1	4	-1.9	2.3	x	x	0.71	i	-5.1
CSc1nc(N2CCN(c3ccccc3)CC2)cc(N2CCN(c3ccccc3)CC2)n1
    10	18	2.8	4.2	1%	3	0.75	x	-0.6
Cc1cccc(-c2oc(C)c(C)[n+]2[O-])c1
    x	x	x	4.5	5%	0	0.67	x	x
O=C(Nc1cccc2cccnc12)c1cccc2ccccc12
    3	0	-1.8	-1.1	-2%	0	0.65	i	1.4
O=S1(=O)CC(N2CCCCC2)CN1Cc1ccccc1 (centres undefined)
    9	8	2.0	-3.3	x	x	x	i	-3.8
COc1ccc2c3c([nH]c2c1)[C@@H](CO)N(Cc1ccccc1)CC31CN(S(=O)(=O)c2ccc(C)cc2)C1
    -1	-19	0.9	x	x	x	x	i	0.3
COc1ccc(/C(C)=N\NS(C)(=O)=O)c(OC)c1
    x	x	x	3.7	11%	-1	x	x	x
Clc1cccc(Cl)c1CNC1CCCC1
    x	x	x	-5.0	-4%	1	0.66	x	x
CCOc1ccc(NC(=S)N2CCC(NC(=O)C3CCCCC3)CC2)cc1
    6	0	-1.4	4.2	x	-7	0.72	i	-1.9
CCOC(=O)CN1CC23C=CC(O2)C(C(=O)NCc2ccc(C)cc2)C3C1=O (centres undefined)
    1	6	3.4	-5.5	3%	-6	0.69	i	-1.2
Cc1noc(C)c1S(=O)(=O)N(C)C[C@@H]1Oc2ccc(NS(=O)(=O)c3ccc(Cl)cc3)cc2CC(=O)N([C@H](C)CO)C[C@H]1C
    -1	0	-3.1	x	x	x	x	i	9.7
CCCc1cc(=O)oc2cc(C)cc(OCC(=O)Nc3ccc(S(N)(=O)=O)cc3)c12
    8	8	-2.2	1.0	x	x	0.7	i	-0.6
CCOC(=O)c1ccc(S(=O)(=O)N2CCC(C(=O)OCC)CC2)cc1
    -1	7	-7.4	-4.4	-8%	-3	0.7	i	-4.5
O=C(N/N=C/c1ccncc1)c1cc([N+](=O)[O-])cc([N+](=O)[O-])c1
    x	x	x	-1.3	25%	-23	x	x	x

Arranged by formula weight (falling): four of the compounds above
The line under a structure holds: Ecoli rRNA inh	Ecoli rRNA inh OD600	Ecoli rRNA inh RFP	HNF4A DNA FP	Vif TR-FRET	ALR H2O2 inh	Ecoli growth	FGF22 binding	AF4-AF9 inh
Cc1noc(C)c1S(=O)(=O)N(C)C[C@@H]1Oc2ccc(NS(=O)(=O)c3ccc(Cl)cc3)cc2CC(=O)N([C@H](C)CO)C[C@H]1C
    -1	0	-3.1	x	x	x	x	i	9.7
CSc1nc(N2CCN(c3ccccc3)CC2)cc(N2CCN(c3ccccc3)CC2)n1
    10	18	2.8	4.2	1%	3	0.75	x	-0.6
CCOc1ccc(NC(=S)N2CCC(NC(=O)C3CCCCC3)CC2)cc1
    6	0	-1.4	4.2	x	-7	0.72	i	-1.9
O=C(N/N=C/c1ccncc1)c1cc([N+](=O)[O-])cc([N+](=O)[O-])c1
    x	x	x	-1.3	25%	-23	x	x	x

(listing goes on)
The line under a structure holds: Ecoli rRNA inh	Ecoli rRNA inh OD600	Ecoli rRNA inh RFP	HNF4A DNA FP	Vif TR-FRET	ALR H2O2 inh	Ecoli growth	FGF22 binding	AF4-AF9 inh
COc1ccc(N2CCN(C(=O)C(CCSC)N=C3NS(=O)(=O)c4ccccc43)CC2)cc1 (centres undefined)
    x	x	x	-3.0	6%	69	0.75	x	x
CCc1ccc2c(c1)NC(=O)C2(C)Cc1cccc(F)c1 (centres undefined)
    -2	-5	5.2	1.6	x	x	x	i	-9.3
Cc1cc(SCc2ccccc2Cl)nc(=O)[nH]1
    -5	5	9.2	9.2	x	94*	0.7	i	-0.3
CC(C)(C)C(=O)OCc1nc(-c2ccc(F)cc2)cs1
    9	8	-3.3	0.8	x	-8	0.65	i	-0.8
COc1ccccc1CN(C)C(=O)c1cnc(C)cn1
    9	18	-1.3	2.5	-10%	1	0.63	i	0.7
O=C1C(CCCNC(=S)NCc2ccccc2)NC(=S)N1Cc1ccccc1 (centres undefined)
    -22	-25	2.0	-6.3	x	2	0.63	i	4.0
Cc1c(Cl)c([N+](=O)[O-])nn1CC(=O)NC1CCCCC1
    x	x	x	-1.9	-2%	2	0.74	x	x
O=C(NC(=S)NCCC1=CCCCC1)c1cccnc1
    -14	-20	1.0	-3.0	9%	23	0.69	i	2.1
CNC(=O)c1cc(S(=O)(=O)Nc2ccc3c(c2)OCCO3)ccc1C
    -18	-16	-0.9	2.5	x	-13	0.66	i	1.0
O=C(OCc1cn(Cc2ccccc2)nn1)c1ccccc1
    4	8	1.9	0.7	6%	-7	0.6	i	2.9
COc1ccc(OC)c(S(=O)(=O)Nc2ccc3c(c2)OCCO3)c1
    9	14	0.4	4.1	5%	x	x	i	2.4
C=CCN1C=C2C(=O)C(C)(OC(=O)c3ccc(OC)cc3)C(=O)C(c3ccco3)=C2C=C1CCCC (centres undefined)
    11	-1	-3.6	-1.4	33%	x	0.7	i	-8.8
Brc1ccc2nc(-c3ccccc3)c(Cc3ccsc3)n2c1
    x	x	x	-13	x	x	x	i	2.8
C=CCn1c2ccccc2c2nn(C)c(=S)nc21
    -3	-2	0.8	-2.8	-1%	7	0.7	i	-1.0
Cc1onc(-c2ccccc2Cl)c1C(=O)NNC(=O)c1ccc(F)cc1
    1	2	2.2	0.2	x	x	0.69	i	1.0
O=C1C2CCCCN2C(=O)N1CCCN1CCN(c2ccc(F)cc2)CC1 (centres undefined)
    28	18	2.5	0.8	x	70	0.72	i	-1.2
O=C(c1cccnc1)N1CCCC(Nc2ccc(F)cc2)C1 (centres undefined)
    4	1	-1.3	-1.2	x	53	0.7	i	-3.8
CCOc1cc(C(=O)Nc2ccc(S(=O)(=O)Nc3onc(C)c3C)cc2)cc(OCC)c1OCC
    -11	-3	-0.8	-4.8	5%	x	0.68	x	-2.6

Not all compounds are listed, so the mix of outcomes need not match the whole.
